Compound activity: PubChem, several laboratories
T cruzi inh = inhibitors of intracellular T. cruzi growth, primary screen, luminescence, NIH3T3 host cells. T. cruzi beta-gal in NIH3T3, 90 h. inhibition, % (no concentration beside the values). 1.4% of 300,000 active. AID 1885, 2009;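 active means mean inhibition across valid replicates above about 55%, limit read from the data; inconclusive means mean below that limit but half or more replicates reach it; inactive means mean below it, under half of replicates reach it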;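 further: signal also drops with host cell toxicity which is not excluded here; 0% = plate median of DMSO wells and 100% = zero luminescence signal; higher percent means less beta-gal luminescence so fewer parasites; stock transfer was 50 nL into about 50 µL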
A1 inh = caspase 3/7 activation in MEF A1-2A-BIM cells, primary screen, A1 inhibitor project, cell-based, luminescence, HTS. Caspase-Glo 3/7 luminescence, 3 h; percent of clofoctol response, vehicle zero. caspase activation, % (concentration not given with the values). 0.066% of 330,000 active. AID 2462, 2010;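 active means over half of replicate activation scores above 10%, or exactly half above 10 with the replicate mean above 10; inconclusive means replicate mean below 10 yet half the replicates above 10; inactive means over half of replicates below 10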;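 further: wells of about 30 µL received 50 nL stock; many hits fall short of the cut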
ALR H2O2 inh = inhibitors of human ALR sulfhydryl oxidase, primary screen, biochemical, H2O2 detection, HRP-luminol luminescence, single point; inhibition, % (test concentration not listed); purified ALR, DTT oxidation; 3.8% of 290,000 active;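 active means mean and each replicate at 75% or more; inconclusive means only one of the two met; inactive means neither met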;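 further: stock transfer was 7.5 nL into about 7.5 µL; 0% = neutral wells and 100% = wells with inactivated enzyme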
Target sequence (P55789 whole entry, looked up): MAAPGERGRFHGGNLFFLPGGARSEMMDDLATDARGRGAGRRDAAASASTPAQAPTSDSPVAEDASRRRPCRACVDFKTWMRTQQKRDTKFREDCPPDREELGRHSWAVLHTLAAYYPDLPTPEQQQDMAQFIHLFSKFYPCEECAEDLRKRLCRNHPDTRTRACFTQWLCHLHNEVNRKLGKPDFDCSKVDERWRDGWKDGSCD
Ecoli rRNA inh = reduced GFP signal of wild-type E. coli, primary screen, bacterial rRNA inhibitor project, GFP/RFP fluorescence, OD600, single point; GFP signal change (wild-type ribosome), % (test concentration not listed); AID 720706, 2013; E. coli WT GFP vs humanized-ribosome RFP mutants, 24 h; hits give low values; DMSO median 0, no signal -100; 1.6% of 350,000 active;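 active means significant combined selectivity score with lowered wild-type GFP, culture density cut under 30%, mutant RFP and density less affected; inactive means any of these conditions unmet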; further: one replicate is shown; some compounds called inactive have numbers as strong as hits
LANA-H2B inh = blockers of LANA interaction with H2A/H2B – biochemical, FP readout, HTS, primary screen. Protein LANA1 (Human herpesvirus 8 type P (isolate GK18)), Q9QR71. cell-free LANA-H2A/H2B peptide, fluorescence polarization. inhibition, % (test concentration not listed). 0.6% of 320,000 active. AID 2629, 2010; in the data active means inhibition mostly above about 10%, no sharp cut-off; inactive means mostly below about 6.7%;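 further: stock transfer was 7.5 nL into about 10 µL; 0% = median of vehicle wells and 100% = median of positive control wells; one replicate is shown; the record names a cut of 25% in any replicate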
Calb FLC = C. albicans growth inhibition with fluconazole, primary screen, CaCi-2 strain, Alamar Blue fluorescence; 0.57% of 300,000 active; C. albicans CaCi-2 (fluconazole-resistant clinical isolate) + fluconazole, 48 h; AID 1979, 2009; growth inhibition, % (test concentration not listed);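 active means most replicates above 75%; inconclusive means exactly half above 75%; inactive means most below 75%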;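 further: all wells also contain fluconazole at 8 µg/ml as a sub-toxic cotreatment; 0% = median of DMSO wells and 100% = median of geldanamycin control wells; wells of about 8 µL received 7.5 nL stock; the first replicate is given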
Beta apoptosis = inhibitors of cytokine-induced beta cell apoptosis, primary screen, luminescence | AID 435005, 2010 | INS-1E cytokine-induced death, ATP luminescence, 48 h; percent of positive-control rescue, neutral wells zero | 0.8% of 300,000 active | protection from apoptosis, % (concentration not given with the values);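 active means all replicates at 75% or more, or half of them and the mean; inconclusive means half reach 75% but not the mean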;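 further: 0% = cytokine-treated negative control wells and 100% = positive control rescue; higher means more ATP so stronger rescue from cytokine killing; wells of about 40 µL received 100 nL stock; the first replicate is given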
B2AR ag = beta2AR agonists driving receptor internalization, primary screen, cell-based, FAP fluorogen, flow cytometry. Am2.2-beta2AR cells; reference of the scale not given here. response, % (test concentration not listed). 0.43% of 340,000 active. AID 504454, 2011;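 active means response above a set limit, near 3 SD of response in nonfluorescent compounds, cut at about 42% in these data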;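 further: stock transfer was 100 nL into about 11 µL; a reference agonist was the positive control; negative values mostly stem from fluorescent compounds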
Target sequence (P07550 whole entry, looked up): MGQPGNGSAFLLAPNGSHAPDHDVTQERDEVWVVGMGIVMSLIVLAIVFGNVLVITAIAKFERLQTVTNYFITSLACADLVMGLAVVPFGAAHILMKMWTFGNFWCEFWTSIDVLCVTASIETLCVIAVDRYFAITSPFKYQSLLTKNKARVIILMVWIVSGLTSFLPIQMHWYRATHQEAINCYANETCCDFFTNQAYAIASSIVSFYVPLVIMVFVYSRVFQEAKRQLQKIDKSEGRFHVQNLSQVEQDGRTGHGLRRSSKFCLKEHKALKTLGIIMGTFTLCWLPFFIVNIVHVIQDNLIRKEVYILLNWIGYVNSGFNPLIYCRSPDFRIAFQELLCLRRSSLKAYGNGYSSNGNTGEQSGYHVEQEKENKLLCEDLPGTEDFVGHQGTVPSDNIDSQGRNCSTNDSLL
Ecoli rRNA inh OD600 = second read-out of Ecoli rRNA inh, no call of its own (marks repeat the call); OD600 change, %; measured here: OD600 growth;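 optical density of the mix in the first replicate; 0 = DMSO median and -100 = no signal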
Ecoli rRNA inh RFP = also measured in Ecoli rRNA inh; calls as there; RFP signal change, %; measured here: RFP humanized mutant strains;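 first replicate; 0 = DMSO median and -100 = no signal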
Starred values were filed as active, the others as inactive; u = inconclusive; x = no result given.

nr	compound	T cruzi inh	A1 inh	ALR H2O2 inh	Ecoli rRNA inh	Ecoli rRNA inh OD600	Ecoli rRNA inh RFP	LANA-H2B inh	Calb FLC	Beta apoptosis	B2AR ag
1	COc1ccccc1CN(C)C(=O)c1ccc(COc2ccccc2)cc1	16	0.0	-25	10	-35	0.5	-4.5	2	0	0
2	CC(C)c1ccc2[nH]c(O)c(N=NC(=O)c3ccc(CSc4nncn4C)cc3)c2c1	3	-0.2	x	x	x	x	x	-18	-11	45*
3	O=C(Cc1cccs1)Nc1cccc(-c2nc3ccccc3[nH]2)c1	-7	-2.9	-7	x	x	x	-4.9	45	x	-10
4	COc1ccc(-n2cnc3ccccc3c2=O)c([N+](=O)[O-])c1	-16	1.0	25	-14	-27	2.2	4.0	-1	-4	-7
5	O=[N+]([O-])c1ccccc1/C=C/C=N/n1c(-c2cc(-c3ccccc3)n[nH]2)n[nH]c1=S	-2	0.6	x	12	20	5.9	-3.5	-3	33	5
6	Cc1cc2cc(CNC(=S)NC3CCCCC3)ccc2n1C	-7	0.7	5	-8	9	31	-5.0	-13	8	1
7	CC(CN1CCOCC1)OC(=O)C(c1ccccc1)c1ccccc1 (configuration not stated)	8	-0.3	-2	x	x	x	-2.8	3	-8	3
8	COc1cccc(/C=C/C(=O)Nc2ccc(C(=O)Nc3cccc(S(N)(=O)=O)c3)cc2)c1OC	-3	0.4	-4	-12	-1	0.3	-3.4	12	13	0
9	O=C(CSc1nncs1)Nc1nnc(-c2ccccc2)o1	-12	0.5	6	3	6	0.1	-2.0	6	-2	11
10	COc1ccc(C2C(C(=O)NCc3cccnc3)c3ccccc3C(=O)N2C)cc1OC (configuration not stated)	x	-0.6	30	x	x	x	-2.5	x	-4	3
11	CCOc1ccccc1NC(=O)N1CCCC1C(=O)NCc1ccco1 (configuration not stated)	0	x	x	4	8	0.1	x	-6	x	-1
12	O=C(OC1CCOC1=O)c1cc(-c2ccc(Br)cc2)nc2ccccc12 (configuration not stated)	-5	-0.2	-2	x	x	x	-9.1	1	-3	-2
13	CCCc1cc(=O)[nH]c(SCc2cc(Cl)ccc2OC(F)F)n1	-3	-0.2	-5	x	x	x	-4.7	11	2	-2
14	NS(=O)(=O)c1ccc(NC(=O)/C=C/c2ccc3c(c2)OCO3)cc1	-33	-0.3	-7	4	10	4.3	5.1	3	x	2
15	O=C(NNC(=S)NC(=O)c1cccc([N+](=O)[O-])c1)c1ccc(Br)cc1	29	-1.2	96*	-17	-39	-6.3	1.4	x	2	-8

Molecules above that contain a halogen (three):
nr	compound	T cruzi inh	A1 inh	ALR H2O2 inh	Ecoli rRNA inh	Ecoli rRNA inh OD600	Ecoli rRNA inh RFP	LANA-H2B inh	Calb FLC	Beta apoptosis	B2AR ag
12	O=C(OC1CCOC1=O)c1cc(-c2ccc(Br)cc2)nc2ccccc12 (configuration not stated)	-5	-0.2	-2	x	x	x	-9.1	1	-3	-2
13	CCCc1cc(=O)[nH]c(SCc2cc(Cl)ccc2OC(F)F)n1	-3	-0.2	-5	x	x	x	-4.7	11	2	-2
15	O=C(NNC(=S)NC(=O)c1cccc([N+](=O)[O-])c1)c1ccc(Br)cc1	29	-1.2	96*	-17	-39	-6.3	1.4	x	2	-8

(continued)
nr	compound	T cruzi inh	A1 inh	ALR H2O2 inh	Ecoli rRNA inh	Ecoli rRNA inh OD600	Ecoli rRNA inh RFP	LANA-H2B inh	Calb FLC	Beta apoptosis	B2AR ag
16	O=C(CCl)N(Cc1ccccc1)c1ccccc1	48	0.0	-5	-5	-4	-5.9	1.8	24	-4	-4
17	Cc1ccc(N=Nc2c(C)[nH]n(-c3ccccc3)c2=O)cc1Br	-10	0.0	-7	11	22	4.3	2.8	-9	-2	-2
18	CCCCNC(=O)c1cc(-c2ccc(OC)cc2)on1	-1	0.1	-3	x	x	x	-0.7	39	6	3
19	O=C(c1ccco1)N1CCN(C(c2ccccc2)c2nnnn2Cc2cccs2)CC1 (configuration not stated)	3	0.2	9	x	x	x	0.5	-1	-5	-8
20	CCn1c(C(C)NC(=O)c2cccc(C)c2)n[nH]c1=S (configuration not stated)	-17	0.1	x	17	15	0.9	-0.9	6	1	3
21	CCOc1ccc(CN(C)c2ccc(S(=O)(=O)N3CCN(C)CC3)cc2[N+](=O)[O-])cc1OC	x	-0.6	-4	-15	-15	-1.0	1.5	x	46	-6
22	CCCN1C(=O)C2(/C(=C(\O)c3ccc4c(c3)OCCO4)C(=O)C(=O)N2CCCOC)c2ccccc21 (configuration not stated)	x	0.0	x	5	14	-5.9	2.5	x	x	-1
23	Cc1ccc2c(c1)N(S(=O)(=O)c1ccc(CN3C(=O)c4cccnc4C3=O)s1)CCO2	-3	-0.5	-7	10	8	1.5	-4.4	-3	-12	-8
24	O=C(CSc1ncnc2ccccc12)NCCc1ccccc1	-8	0.2	1	-11	-11	-0.6	-1.5	-36	-1	-11
25	O=C(NCc1ccccc1)c1cccc(NS(=O)(=O)c2cccc3cccnc23)c1	-13	0.6	3	x	x	x	-2.3	-8	5	0
26	Cc1cccc(N2CC(C(=O)O)CC2=O)c1C (configuration not stated)	-8	-0.3	6	-4	-4	0.4	-4.5	0	-2	5
27	O=C(Nc1nc(-c2ccccc2)cs1)c1ccc(=O)[nH]c1	5	-0.1	45	-7	-10	7.0	4.9	-6	-12	-10
28	Cc1cc(C(F)(F)F)n2nc(-c3sccc3-n3cccc3)cc2n1	20	-0.7	4	x	x	x	-0.7	2	-2	-1
29	O=C(O)c1cccc(NC(=O)c2cccc(S(=O)(=O)N3CCCCC3)c2)c1	11	-8.2	x	x	x	x	2.3	6	4	-3
30	CC(=O)C1=C(C)NC(=O)CC1c1ccc(Br)cc1 (configuration not stated)	-40	0.1	-13	15	7	-0.8	6.1	0	-2	-2
31	CCNCc1cc(Br)c(OCC(=O)Nc2ccccc2)c(OC)c1	10	0.8	-1	x	x	x	-4.4	-33	0	-2
32	COCCCn1c(=O)/c(=C\c2ccccc2OC(F)F)s/c1=C(/C#N)C(N)=O	-4	-1.4	3	49	7	0.6	-13	-17	-3	-6
33	CCN(CC)S(=O)(=O)c1ccc(C(=O)Nc2cc(C)cc(C)c2)cc1	6	0.0	0	x	x	x	0.6	-10	x	12
34	Cc1cc(C)c(S(=O)(=O)c2cc(F)ccc2C)c(=O)[nH]1	7	0.8	-8	7	7	-2.4	1.5	-10	-5	-5
35	Cc1cc(N2CCN(c3ccccn3)CC2)n2cc(-c3ccccc3)nc2n1	18	-0.6	3	x	x	x	-0.1	19	-1	-14
36	Cc1c(Cl)cccc1NCC(=O)NN=C1CCCC1	-12	1.6	46	-1	12	1.8	3.2	-2	x	-5
37	O=C(O)C1C2CCC(C2)C1C(=O)Nc1cccc([N+](=O)[O-])c1 (configuration not stated)	-6	0.2	3	-1	6	-2.9	0.6	1	-8	-2
38	Cc1cc(C)nc(SCC(=O)Nn2cnnc2)n1	-18	0.3	-2	x	x	x	0.2	-1	1	2
39	O=C(CN1C(=O)/C(=C/c2ccccc2)SC1=S)Nc1cccnc1	-16	-0.3	-5	13	13	5.1	-2.9	u	-5	-2
40	CN1CCN(NC(=O)c2cc(Br)ccc2Cl)CC1	12	0.0	-12	19	14	2.2	2.8	-13	-12	-1
41	COc1ccc2c(c1)SC(C)CC2=O (configuration not stated)	-11	-0.1	-6	x	x	x	3.0	-5	-2	14
42	COc1ccc(/C=C/C(=O)c2cccc(-n3cnnn3)c2)cc1O	-10	-0.9	-10	3	8	-0.2	17	28	-1	6
43	O=C(CCc1nnc2ccc(N3CCCC3)nn12)Nc1ccc(F)c(F)c1	4	-0.1	-6	12	26	-2.1	2.2	16	-2	-10
44	COc1cc(SC)ccc1C(=O)Nc1ccc2c(c1)OCCO2	14	-4.1	-21	-25*	-17*	1.6*	0.6	9	0	0
45	COc1ccc(OC)c(NC(=O)CCCSc2ccccc2)c1	2	0.0	-12	-4	-27	-2.4	-2.0	-3	-2	-4

B2AR ag, what is marked active above.
cpd | Compound | A1 inh | ALR H2O2 inh | Ecoli rRNA inh | Ecoli rRNA inh OD600 | Ecoli rRNA inh RFP | LANA-H2B inh | B2AR ag
2 | CC(C)c1ccc2[nH]c(O)c(N=NC(=O)c3ccc(CSc4nncn4C)cc3)c2c1 | -0.2 | x | x | x | x | x | 45*

Next results follow.
nr	compound	T cruzi inh	A1 inh	ALR H2O2 inh	Ecoli rRNA inh	Ecoli rRNA inh OD600	Ecoli rRNA inh RFP	LANA-H2B inh	Calb FLC	Beta apoptosis	B2AR ag
46	OCC[C@@H]1C[C@H](O)[C@@H](O)[C@@]2(OCCc3ccccc32)O1	-14	-0.7	-3	x	x	x	-6.1	-4	1	3
47	O=C(COC(=O)c1cccc2c1C(=O)c1ccccc1C2=O)NC1CCCCC1	13	0.2	-32	-28	-26	-1.2	-0.9	-8	-2	-7
48	COc1ccc(NC(=O)c2ccc3nc[nH]c3c2)c(OC)c1	-4	-0.1	-43	8	5	-3.5	3.1	7	-9	7
49	OCCN1CCN(CCOc2cccc(Cl)c2)CC1	66*	-0.2	0	x	x	x	5.0	3	6	0
50	N#C/C(=C/c1ccc(N2CCCCC2)o1)C(=O)NCCc1c[nH]c2ccccc12	34	1.6	x	3	-9	-4.1	0.0	42	-7	-55

Some of the compounds tested, so the mix of outcomes need not match the whole.
